# GLA inh pH 4.5 – inhibitors of human alpha-galactosidase A at pH 4.5. P06280. purified enzyme, 4-MU-alpha-Gal fluorescence, pH 4.5. activity change, negative = inhibition, % at 105 µM. 230,000 tested, under 10 active; inconclusive = small, poorly fitted or top-dose-only inhibition, or a rising curve; inactive = flat fitted curve, though single readings scatter; no compound was filed as active;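 note: 0% = full activity with enzyme and -100% = basal without enzyme; dose as in the result columns while the protocol names 77 µM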
# miR-21 FLuc – raises the signal of a miR-21 reporter. 340,000 tested, under 10 active. HeLa miR-21 FLuc reporter, luciferase, 48 h. Potency, µM (titrated, usually from 38.3 µM), for the others: at the highest dose reporter change, positive = more light; active = well fitted rising curve with a large enough effect; inconclusive = small, poorly fitted or top-dose-only effect; inactive = no such curve, though single readings can be large or run the other way;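 note: % of control where 0% means no effect; miR-21 action dims this reporter so a rising signal means less miR-21 action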
#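 HeLa miR-21-FLuc reporter line, endogenous miR-21; 2000 cells/well in DMEM/10% FBS; compound titration up to ~40uM final, 48 h, 37 degree Celsius; luciferase detection reagent, 15 min lysis, CCD luminescence.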
# Rango complex inh – Rango-importin beta binding inhibition; Q14974; Rango CFP/YFP FRET sensor + importin beta, 45 min; Potency, µM (series often up to 92.2 µM), for inactives: top-dose inhibition of complex formation; 340,000 tested, 0.031% active; AID 540263; active = rising FRET ratio curve, often small or poorly fitted; inconclusive = mostly compound fluorescence or quenching in the first reads; inactive = flat curves in all reads;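 note: potency is the fitted concentration of half-maximal effect; 0% = DMSO wells and 100% = buffer wells lacking importin beta; nearly all actives have a fitted effect of over 15% in size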
# Target sequence (Q14974 whole entry, looked up): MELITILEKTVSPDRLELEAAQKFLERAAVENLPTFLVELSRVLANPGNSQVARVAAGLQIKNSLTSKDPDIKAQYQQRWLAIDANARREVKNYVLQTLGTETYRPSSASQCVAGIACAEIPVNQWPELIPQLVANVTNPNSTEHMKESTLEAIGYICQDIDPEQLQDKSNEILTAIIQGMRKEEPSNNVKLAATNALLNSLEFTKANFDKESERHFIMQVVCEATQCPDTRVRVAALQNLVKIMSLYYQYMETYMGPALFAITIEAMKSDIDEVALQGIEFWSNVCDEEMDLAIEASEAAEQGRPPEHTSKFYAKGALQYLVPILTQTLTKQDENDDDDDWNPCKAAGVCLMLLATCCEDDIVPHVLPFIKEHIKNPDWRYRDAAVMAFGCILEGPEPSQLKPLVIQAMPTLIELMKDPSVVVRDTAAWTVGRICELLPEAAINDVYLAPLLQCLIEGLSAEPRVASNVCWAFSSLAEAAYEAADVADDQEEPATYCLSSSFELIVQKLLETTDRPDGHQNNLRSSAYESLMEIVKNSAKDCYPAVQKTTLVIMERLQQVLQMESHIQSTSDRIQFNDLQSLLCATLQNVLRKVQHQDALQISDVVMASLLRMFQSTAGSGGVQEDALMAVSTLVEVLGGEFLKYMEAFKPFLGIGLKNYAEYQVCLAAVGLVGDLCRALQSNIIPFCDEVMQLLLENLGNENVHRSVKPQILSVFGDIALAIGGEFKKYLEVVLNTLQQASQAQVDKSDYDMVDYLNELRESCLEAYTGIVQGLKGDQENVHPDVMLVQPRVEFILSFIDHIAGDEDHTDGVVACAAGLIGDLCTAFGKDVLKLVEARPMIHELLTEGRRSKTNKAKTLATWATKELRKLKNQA
#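 Inhibition scored from the CFP 486 nm/YFP 530 nm FRET ratio 45 min after adding 0.125 microM importin beta to 50 nM Rango biosensor preincubated 5 min with compound (room temperature, PBS with DTT, Tween-20, BSA). No-importin wells as positive control.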
# Rango release inh – prevents RanGTP from dissociating the Rango-importin beta complex | AID 540253 | 340,000 tested, 0.071% active | Potency, µM (titrated, usually from 46.1 µM), for the others: top-dose activity change, negative = inhibition | O95149+P62826 | Biochemical FRET Rango-importin beta, RanGTP-induced dissociation; active means falling FRET ratio curve, often poorly fitted, with flat reads before Ran was added; inconclusive means other falling curves, or compound fluorescence or quenching; inactive means flat or rising ratio curve;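 note: potency is the fitted concentration of half-maximal effect; % of control where 0% means no effect; nearly all actives have a fitted effect of over 45% in size; -100% = wells without RanGTP and RCC1; the record marks most hits as doubtful in a second field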
#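 FRET read at 45 min, room temperature: inhibitors block the CFP/YFP signal rise when RanGTP (0.6 uM Ran, 2 mM GTP, 0.2 uM RCC1) frees Rango (0.1 uM) from importin beta (0.25 uM). Pre-read after 5 min compound exposure flags interference.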
# The depositor's hits bear a star; ? = inconclusive; · = no result given; [ ] = another dose, or the depositor's remark.
SMILES,GLA inh pH 4.5,miR-21 FLuc,Rango complex inh,Rango release inh
CCOc1ccc(-c2nnc(-c3ccncc3)o2)cc1,-21.8,-23.5%,-0.9%,-8.3%
O=C1CN(C(=O)NCC(=O)N[C@H](C(=O)O)c2ccccc2)c2ccccc2N1,·,1.3%,3.5%,-15.7%
COC(=O)C1CCN(CC(=O)NC(=O)NC2CCCCC2)CC1,2.5,-3.5%,2.0%,1.2%
Cc1ccc(C)c(N(CC(=O)NCc2ccco2)C(=O)CCC(=O)Nc2ccccn2)c1,4.2,-7.4%,-2.4%,-12.6%
CC(=O)c1c(C)[nH]c(C(=O)OCC(=O)N2CC(C)OC(C)C2)c1C (configuration not stated),·,·,-0.5%,-2.9%
Oc1cc(Cl)cc(Cl)c1Cl,·,·,-0.5%,-8.9%
CCc1ccccc1NC(=O)COC(=O)c1c(C)nsc1NC,·,·,-1.6%,-0.4%
O=C(NCc1ccc(F)cc1)C(c1cccnc1)N(C(=O)c1csnn1)c1ccccc1 (configuration not stated),·,-2.2%,-0.5%,11.6%
CC(C)(C)OC(=O)N1CCC(c2c(C(=O)O)cnn2-c2ccc(Cl)cc2)CC1,-15.6,-11.1%,-8.7%,2.3%
CCCSc1nnc(-c2ccccc2N)c(=O)[nH]1,-3.5,-42.3%,-3.8%,0.6%
O=C(O)C1C2C=CC(C2)C1C(=O)NCCc1cccc(Cl)c1 (configuration not stated),-8.0,-4.5%,-0.9%,-3.5%
CCN(CC)c1ccc(C=Nc2cccc(S(=O)(=O)N3CCOCC3)c2)c(O)c1,·,·,-1.4%,-7.3%
CCCCCC(=O)Nc1cccc(C2=NOC3(C2)C[C@@H](C(N)=O)N(C(=O)c2cc([N+](=O)[O-])cc([N+](=O)[O-])c2C)C3)c1 (some centres not stated),-4.6,22.2%,1.5%,2.4%
COc1ccc(-c2c(C)[nH]n3c(=O)c(Cc4ccccc4)c(C)nc23)cc1,-3.5,?,2.3%,4.8%
C=C(C)c1cccc(C(C)(C)NC(=O)N2CCN(C/C=C/c3ccccc3)CC2)c1,-3.4,13.1%,-1.0%,3.6%
COc1ccc2[nH]c(=O)c(CN(Cc3nnnn3Cc3ccc(F)cc3)CC3CCCO3)cc2c1 (configuration not stated),-16.1,-6.1%,-1.8%,3.7%
O=C(O)c1ccc(N2CCCCS2(=O)=O)cc1,-4.6,-2.7%,3.0%,0.6%
O=Cc1c(Sc2ccccn2)nc2ccccn2c1=O,-6.0,19.7%,-2.0%,-4.5%
Cc1ccccc1NC(=O)n1ncc2cc(Cl)ccc21,·,-18.7%,-1.1%,13.3%
CC(=O)Nc1ccc(S(=O)(=O)N(C)CC(=O)OCC(=O)N(C)C2CCS(=O)(=O)C2)cc1 (configuration not stated),·,·,?,-12.9%
O=c1[nH]c(=O)n(Cc2ccccc2)c2nc(-c3ccc(Oc4ccc(F)cc4)c([N+](=O)[O-])c3)n(CCO)c12,-17.8,16.1%,-2.5%,3.6%
CC(C)c1c(O)nc(SCCC(=O)O)[nH]c1=O,-8.1,-5.1%,0.4%,21.7%
COc1ccccc1CNc1ncccc1[N+](=O)[O-],·,-19.7%,0.3%,-11.0%
Cc1ccccc1C(=O)NC(=S)NCc1cccnc1,6.7,-0.4%,0.0%,-1.9%
COc1cc(OC)c2c(-c3cccc(-c4ccc(NC(C)=O)cc4)c3)cc(=O)oc2c1,-9.0,·,-1.5%,-2.0%
CCC1CCCCN1Cc1cc(OC)c(O)c([N+](=O)[O-])c1 (configuration not stated),6.5,-4.5%,0.5%,-13.8%
COc1cc(CN(C(=O)c2ccco2)c2ccc(C)cc2)ccc1O,-3.8,-3.5%,-1.2%,0.8%
O=C(Cc1cccc2ccccc12)Nc1ccc(OC(F)F)c(Cl)c1,-8.5,-9.7%,-0.1%,-1.4%
COc1ccc(S(=O)(=O)N2CCOCC2)cc1NC(=O)Cc1coc2cc(C)c(C)cc12,·,-0.9%,0.2%,14.9%
COc1cc(SC)ccc1C(=O)NCCNC(=O)c1nonc1N,·,-4.2%,0.2%,-3.0%
CCCCCCCn1c(=N)n(CC(O)c2ccco2)c2ccccc21 (configuration not stated),-4.4,28.9%,?,-15.0%
O=C1NN(c2cccc(Br)c2)C(=O)/C1=C/c1cccs1,-3.0,-5.0%,1.0%,0.4%
COc1ccc(C(=O)O/N=C(\N)c2ccccc2)c(OC)c1,0.5,24.3%,5.2%,-11.3%
COc1cc(CC(=O)NCC2COc3ccccc3O2)cc(OC)c1OC (configuration not stated),-11.2,-0.4%,-2.1%,0.5%
O=c1oc2c(CN3CCOCC3)c(O)ccc2c2c1CCCC2,?,-21.2%,?,-46.6%
Cc1ccc(C)c(N=Nc2ccc(O)c3ncccc23)c1,-11.2,-13.0%,?,16.7%

# Individual results from the list.
# GLA inh pH 4.5 result of O=C1NN(c2cccc(Br)c2)C(=O)/C1=C/c1cccs1 reads -3.0
# Rango complex inh result of COc1cc(OC)c2c(-c3cccc(-c4ccc(NC(C)=O)cc4)c3)cc(=O)oc2c1 reads -1.5%

# Next structures follow:
SMILES,GLA inh pH 4.5,miR-21 FLuc,Rango complex inh,Rango release inh
Cc1ccccc1NC1=NS(=O)(=O)c2ccccc21,-4.1,-0.3%,-0.9%,0.3%
Cc1cc(Cl)c(OCCCNCc2ccccc2)c(Br)c1,-21.8,-5.4%,-2.6%,-19.6%
C=CCn1c(SCC(=O)Nc2ccc(F)cc2)nc2cc(C(=O)O)ccc2c1=O,6.3,-0.4%,1.8%,8.3%
O=C1NN(c2ccccc2)C(=O)/C1=C\c1ccc(-c2cc([N+](=O)[O-])ccc2O)o1,-6.7,0.4%,0.2%,-5.4%
CCCCCn1c(SCC#N)nc2cc(C(=O)NCC3CCCO3)ccc2c1=O (configuration not stated),10.1,-2.3%,-0.7%,-0.4%
COCCCNC(=O)CC(=O)N/N=C\c1ccc(SC)cc1,7.2,1.7%,-0.3%,-11.5%
C=CCSc1nnc(N2C(=O)C(O)=C(C(=O)c3ccco3)C2c2ccc(F)cc2)s1 (configuration not stated),·,1.2%,?,?
CCc1ccc(NC(=O)c2ccc(OC)c([N+](=O)[O-])c2)cc1,5.6,-27.1%,-0.2%,2.6%
Cc1cc(NC(=O)CSc2cc(C)c3ccccc3n2)no1,·,·,2.1%,6.0%
O=[N+]([O-])c1ccccc1/C=C/C=N/n1c(-c2ccco2)n[nH]c1=S,-2.4,-9.1%,3.8%,-18.5%
Cc1cccc(C(=O)NCC(=O)OCC(=O)N2CCN(S(=O)(=O)c3ccc(C)cc3C)CC2)c1,·,·,-3.6%,-16.8%
COCCNC(=O)Cn1cc(/C=C(\C#N)C(=O)NC2CCCC2)c2ccccc21,·,-8.9%,?,?

# An excerpt of these results, with the structure last:
GLA inh pH 4.5 | miR-21 FLuc | Rango complex inh | Rango release inh | Molecule
6.3 | -0.4% | 1.8% | 8.3% | C=CCn1c(SCC(=O)Nc2ccc(F)cc2)nc2cc(C(=O)O)ccc2c1=O
-6.7 | 0.4% | 0.2% | -5.4% | O=C1NN(c2ccccc2)C(=O)/C1=C\c1ccc(-c2cc([N+](=O)[O-])ccc2O)o1

# Remaining list, next part:
SMILES,GLA inh pH 4.5,miR-21 FLuc,Rango complex inh,Rango release inh
CCN(CC)C(=O)CSc1nnc(-c2ccncc2)n1N,6.5,-0.9%,7.0%,15.8%
CC1CN(C)C(c2ccccc2)C(C)C12NC(=O)NC2=O (configuration not stated),4.8,-5.0%,1.6%,-13.1%
Cc1nc2ccccc2c(C)c1CC(=O)N(CC(C)C)c1c(N)n(Cc2ccccc2)c(=O)[nH]c1=O,·,·,?,-9.3%
COc1cc(CNC2CCC(C)C2)cc(OC)c1 (configuration not stated),5.6,-3.8%,-1.6%,1.9%
Cc1c(Cl)cccc1NC(=S)NCc1ccco1,-1.9,-1.2%,-5.5%,-4.2%
CC1CC(=O)N(c2ccc(NCCc3ccccc3)c([N+](=O)[O-])c2)C1=O (configuration not stated),-16.1[21.1 µM],-10.3%,0.1%,-2.0%
CCOC(=O)c1ccc(NC2=CC(=O)CC(c3ccco3)C2)cc1 (configuration not stated),5.1,-1.4%,3.1%,?
Cc1ccc(NC(CC(=O)c2ccccc2)c2ccc(F)cc2)cc1 (configuration not stated),-5.9,-11.7%,-0.2%,1.1%
O=C(CSc1ncccn1)N/N=C/c1ccc(OC2CSC2)cc1,1.1,-5.5%,4.6%,0.7%
Cc1ccc(S(=O)(=O)/N=C(\N)Nc2nc(C)c3cc(C)c(C)cc3n2)cc1,-8.6,-7.1%,-1.7%,-14.1%
Cc1cccc(C(=O)Nc2nnc(SCC(=O)Nc3ccc4c(c3)oc3ccccc34)s2)c1,6.4,-3.5%,-0.2%,2.0%
CCOc1ccc(Br)cc1S(=O)(=O)N1CCCN(C)CC1,·,-1.7%,4.4%,10.2%
COc1ccc(CN2CCN(Cc3cn(C)nc3-c3ccccc3)CC2CCO)c(C)c1C (configuration not stated),3.5,-2.5%,-4.2%,-2.9%
O=C(Cc1cccs1)Nc1ccccn1,-18.4,-11.7%,-0.8%,-1.5%
Cc1nnc(SCC(=O)NC2CCCC2)s1,9.3,-0.7%,-0.1%,0.9%
Cc1cc2c(c(SCC(N)=O)n1)C(=O)OC2,9.6,-1.4%,3.6%,0.0%
O=C(CCS(=O)(=O)c1ccccc1)NC12CC3CC(CC(C3)C1)C2,4.8,-65.6%,-0.7%,4.6%
CC1(C)Cc2c(c(N3CCOCC3)nc3snc(Br)c23)CO1,5.6,8.7%,-2.5%,1.2%
O=C(O)C1C2CCC(C2)C1C(=O)Nc1nc2ccccc2s1 (configuration not stated),-0.9,-14.4%,9.2%,4.5%
O=C(NC(O)C(=O)c1ccc(F)cc1)c1ccc(F)cc1 (configuration not stated),·,0.5%,0.2%,5.8%
Cc1ccc(S(=O)(=O)N2CCN(CCNC(=O)C(=O)NCc3ccccc3)CC2)cc1,·,-2.3%,-5.5%,-1.5%
CC(=O)Nc1ccc(SC[C@H](Cc2ccccc2)N2CC[C@@H](O)CCC2=O)cc1,·,·,-0.4%,6.7%
Cc1oc(C(N)=O)cc1COc1ccc(C(N)=O)cc1,5.8,1.7%,-0.6%,-7.2%
COC(=O)Cc1ccc(NC(=S)N2CCN(C(=O)C3CCCO3)CC2)cc1 (configuration not stated),·,-0.3%,0.2%,0.3%

# Quoted at random: 3 entries already listed
SMILES,GLA inh pH 4.5,miR-21 FLuc,Rango complex inh,Rango release inh
O=C1CN(C(=O)NCC(=O)N[C@H](C(=O)O)c2ccccc2)c2ccccc2N1,·,1.3%,3.5%,-15.7%
Cc1cc(Cl)c(OCCCNCc2ccccc2)c(Br)c1,-21.8,-5.4%,-2.6%,-19.6%
C=CCn1c(SCC(=O)Nc2ccc(F)cc2)nc2cc(C(=O)O)ccc2c1=O,6.3,-0.4%,1.8%,8.3%

# (listing goes on)
SMILES,GLA inh pH 4.5,miR-21 FLuc,Rango complex inh,Rango release inh
N#CC1=C(N)Oc2c(ccc3cccnc23)C1c1ccncc1 (configuration not stated),-11.9,17.1%,0.3%,-4.9%
O=C(NCCc1ccccc1)C(=O)c1cn(CC(=O)N2CCCC2)c2ccccc12,·,2.8%,0.4%,?
O=C(CN1C(=O)c2ccccc2C1=O)Nc1cccc([N+](=O)[O-])c1,-7.2,-4.6%,-0.1%,5.2%
N=c1n(Cc2ccccc2Cl)c2ccccc2n1CC(O)c1ccco1 (configuration not stated),-13.7,16.5%,-4.1%,-3.2%
Cc1cc(=O)oc2cc(OCC(=O)Nc3ccc(F)cc3F)ccc12,·,·,0.4%,-12.3%
COc1ccc(CCN(Cc2nc3ccccc3c(=O)[nH]2)C(=O)C2CC2)cc1,8.5,0.1%,3.0%,0.9%
CCCC[n+]1ccn(-c2nc3ccccc3nc2[N-]S(=O)(=O)c2ccc(Cl)cc2)c1,6.8,2.8%,?,?
C#CCOCCOCCOCCNc1nc(N2CCN(C(=O)Cn3cc(CCCN=C(N)N)nn3)CC2)nc(N2CCN(C(=O)[C@H]([C@@H](C)CC)n3cc(CCCN=C(N)N)nn3)CC2)n1,-8.9,-8.9%,·,·
O=C(NCc1ccc2c(c1)OCO2)c1cc2ccccc2o1,5.5,-14.2%,0.7%,2.2%
O=C(NC1CC1)c1cc2c(s1)-c1ccccc1OC2,?,-12.8%,-0.7%,34.5%

# Bioassay records from PubChem.

# A portion of the library, so the mix of outcomes need not match the whole.
